# MT1-MMP act inh = inhibitors of human MT1-MMP activation. P50281. HT1080 RFP-PRO-GFP cells, GFP/RFP ratio fluorescence, overnight; percent of plate control window, DMSO zero. GFP/RFP ratio change, % at 20 µM. actives 0.061% (n = 360,000). AID 651647;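 active = GFP/RFP ratio change of at least 30% with cell ATP level not reduced by more than half and red fluorescence within 50% of control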; note: strong numbers were not always called active
#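 Assay system: HT1080 RFP-PRO-GFP cells | Dosing: 20 µM single dose, 1% DMSO | Incubation: Cells overnight before dosing, compound overnight, 37 °C, 5% CO2 | Evaluation: GFP/RFP fluorescence ratio | Control set: DMSO-only wells and HT1080 RFP-L50D-GFP cell wells as references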
# eIF4H inh = inhibitors of RNA binding by human eIF4H | Q15056 | eIF4H fluorescence polarization binding assay | inhibition, % at 35 µM | actives 0.94% (n = 290,000) | AID 2012;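 active = 50% or more with normal probe brightness, or confirmed in later tests; about a fifth of its hits are not listed in these tables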;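 note: calls also rest on retests at 20 µM and on dose response follow-up; 0% = protein and probe with vehicle and 100% = probe without protein; strong numbers were not always called active; many hits fall short of the cut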
# PABP FP inh = PABP-poly(A) binding inhibition | inhibition, % at 35 µM | PABP-poly(A) RNA binding, fluorescence polarization | P11940 | actives 1% (n = 290,000);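 active = 50% or more with normal probe brightness, or confirmed in later tests; about a fifth of its hits are not listed in these tables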;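 note: calls also rest on retests at 20 µM and on dose response follow-up; controls were probe without protein and protein plus probe with vehicle; some compounds called inactive have numbers as strong as hits; many hits fall short of the cut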
# Rce1 inhib = yeast Ras-converting enzyme inhibition. yeast membranes, quenched prenylated peptide cleavage fluorescence. calls only. actives 0.27% (n = 290,000);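 active = fall in fluorescence gain of 50% or more versus controls, with final raw signal at or below 3038400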;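 note: plate controls were neutral control wells for no effect and wells lacking membranes for full effect; tested at 10 µM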
# Target sequence (Q03530 whole entry, looked up): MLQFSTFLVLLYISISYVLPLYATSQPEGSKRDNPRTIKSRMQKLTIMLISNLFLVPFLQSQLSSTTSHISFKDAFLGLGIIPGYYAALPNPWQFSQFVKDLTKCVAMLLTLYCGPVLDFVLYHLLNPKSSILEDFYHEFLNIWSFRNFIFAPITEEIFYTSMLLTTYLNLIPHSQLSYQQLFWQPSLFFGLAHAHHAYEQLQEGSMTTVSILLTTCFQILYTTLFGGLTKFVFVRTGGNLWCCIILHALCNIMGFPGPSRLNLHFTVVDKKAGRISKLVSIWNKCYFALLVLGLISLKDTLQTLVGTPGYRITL
# Env fusion inh = HIV envelope-mediated fusion inhibition; actives 1.1% (n = 360,000); inhibition, % at 12.3 µM; HeLa-JRFL Env/CEM21 cell fusion, luciferase;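 active = mean replicate inhibition score of at least 50 and every replicate individually at or above 50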;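 note: 0% = plate neutral controls and 100% = maraviroc near 300 nM; one replicate is shown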
# Yeast UUG start = alters start codon recognition fidelity in yeast. actives 0.13% (n = 350,000). S. cerevisiae UUG-firefly luciferase reporter, luminescence/redox ratio. activity score, % at 18.7 µM. AID 602363;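 active = replicate mean at a twofold rise or more, about +100% in these data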;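 note: firefly luciferase made from a UUG start codon reports start codon fidelity; reporter light over untreated wells divided by growth signal over untreated wells; some hits fall short of that in this replicate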
# CSC inhib = cancer stem cell inhibition. cancer stem cell-like cells viability, luminescence. inhibition, % at 7.5 µM. actives 1.1% (n = 300,000). AID 2717;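 active = mean at 75% or more and at least half the replicates too; tested in HMLE shEcad cells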;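 note: 0% = median of negative and 100% = median of positive control wells; the first replicate is given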
# eIF4H inh retest = recorded beside eIF4H inh, whose call it bears; inhibition, %; compound at 20 µM; confirmation average;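 mean of two retest wells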
# PABP FP inh retest = also measured in PABP FP inh; calls as there; inhibition, %; compound at 20 µM; confirmation repeats;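 mean of two retest wells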
# MT1-MMP act inh RFP = further read-out of MT1-MMP act inh, marked with its call; RFP signal change, %; measured here: RFP expression control read;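 0 = vehicle wells; hits needed this value within 50% of zero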
# Numbers without * were called inactive; i = inactive; / = no result given. Some of the compounds tested (hit frequency here may not be typical).
SMILES,MT1-MMP act inh,MT1-MMP act inh RFP,eIF4H inh,PABP FP inh,Rce1 inhib,Env fusion inh,Yeast UUG start,CSC inhib,others
COc1cc(C(=O)N/N=C/c2ccsc2C)cc(OC)c1OC,16,-4,-8,-5,i,/,/,76*,
Cc1cc(C)c(S(=O)(=O)N2CCN(C(=O)C(C)Cn3cncn3)CC2)c(C)c1 (stereo not drawn),-2,-1,0,5,/,13,-18,-9,
CC(O)CO (stereo not drawn),-3,7,/,/,/,/,-18,-5,
COc1ccc(C(CC(=O)O)N2C(=O)CCC2=O)cc1 (stereo not drawn),-4,0,6,2,i,4,-4,-15,
Cc1cccc2sc(NC(=O)C3CSC4(C)CCC(=O)N34)nc12 (stereo not drawn),-8,-2,-13,7,i,-52,-6,-6,
CC(=O)c1ccc(NC(=O)Cn2cnc(S(=O)(=O)N3CCc4ccccc43)c2)cc1,1,-8,-4,-4,i,-5,-1,-16,
CCOC(=O)Cn1c2ccccc2c2nc3ccccc3nc21,2,-6,1,50,i,-16,-3,-1,
CCOc1ccc(CC(=O)Nc2nccs2)cc1OCC,-4,0,3,-6,i,9,/,-4,
CCCCn1c(N)c(N(CCOC)C(=O)CN(C)S(=O)(=O)c2ccc(F)cc2)c(=O)[nH]c1=O,1,0,/,/,i,13,/,-5,
CCCOc1ccc(Cl)cc1CNc1ccccc1,3,6,-5,-6,i,-5,/,0,
C/C=C/c1ccc(OCC(=O)Nc2cc(C(F)(F)F)ccc2N2CCOCC2)c(OC)c1,3,3,7,-4,i,/,-13,18,
O=C(CN(C(=O)CNC(=O)c1ccco1)c1ccc(F)c(Cl)c1)NC1CCCCC1,-1,-1,-5,2,i,1,-9,/,
O=C(Nc1cc(C(F)(F)F)ccc1N1CCOCC1)c1cncc(Br)c1,1,1,-2,-7,/,13,-13,11,
Cc1onc(-c2ccccc2Cl)c1C(=O)Oc1cccc2cccnc12,1,1,2,-4,i,9,/,3,
Cc1ccc(C)c(N2CCN(C(=O)c3csc(C)c3C)CC2)c1,-10,-7,2,-10,i,5,-1,10,
C=CS(=O)(=O)N(Cc1ccccc1Br)[C@H](CO)CC(C)C,0,-3,/,/,/,-21,8,/,
COC(=O)c1ccccc1NC(=O)CSc1nnc(COc2cccc(OC)c2)n1C,2,-1,0,8,i,-43,-16,-6,
CC(=O)Nc1cc(-c2ccc(N3CCN(C)CC3)cc2)cn2c(-c3cccc(C(=O)N(C)C)c3)cnc12,-2,4,/,/,/,33,-22,/,
O=C(OCc1ccc(Cl)cc1)c1cccnc1Cl,4,-2,-1,7,i,27,/,-3,
NC(=O)COC(=O)CSc1cccc2cccc(Cl)c12,2,9,-2,-5,i,-39,/,/,
Cc1ccc(S(=O)(=O)CCC(=O)Nc2ccc3c(c2)OCO3)cc1,-5,-1,-20,2,i,/,-9,3,
CCCCC(=O)Nc1ccc(S(=O)(=O)N2CCCCC2c2cccnc2)cc1 (stereo not drawn),-3,-2,7,-8,i,-11,13,-2,
CC(C)N(Cc1ccccc1)C(=O)CC(=O)N(Cc1ccccc1)C(C)C,-2,0,-1,6,i,11,-10,/,
CCc1ccc(CNC(=O)CCS(=O)(=O)Cc2ccc(C)cc2)cc1,/,/,/,/,i,3,-5,-2,
Cc1c(/C(O)=C2/C(=O)C(=O)N(Cc3cccnc3)C2c2cccs2)cnn1-c1ccccc1 (stereo not drawn),2,2,-7,6,i,/,-42,-5,
Cc1cc(C)n2nc(SCC(=O)N3CCCC(C)C3)nc2n1 (stereo not drawn),-2,0,/,/,/,8,6,2,
O=C(CN1C(=O)C2CC=CCC2C1=O)Nc1ccc(OC(F)(F)F)cc1 (stereo not drawn),1,0,/,/,/,1,4,/,
O=C(O)CCNc1cc2ccccc2cc1C(=O)O,-3,2,11,80,i,-1,-11,0,eIF4H inh retest=22;PABP FP inh retest=26
O=C(Nc1ccc(Cl)cc1)N1CCc2ccccc2C1,3,2,-4,-11,i,-16,/,-10,
CCN(CC)Cc1c(C(=O)N/N=C/c2ccc(C)o2)nnn1-c1nonc1N,3,7,-15,-10,i,-10,-9,4,
O=C(CN1CCN(Cc2ccc(F)cc2)C1=O)NC1CCCC1,-2,1,-1,13,i,21,-16,-18,
CC(=O)c1c(COC(=O)c2ccc(Cl)cc2)nc2ccccc2[n+]1[O-],1,1,-4,-6,i,-2,/,-8,
CCC(=O)N=c1n(C)c2ccccc2n1CCOc1ccccc1,0,3,4,6,i,-8,/,37,
COc1cccc(OCC(O)CN2CCC(CN3C(=O)c4cccc5cccc(c45)C3=O)CC2)c1 (stereo not drawn),3,-12,-1,0,i,-1,/,13,
Cc1cc(NC(=O)c2ccc(S(=O)(=O)N3CCOCC3)cc2)no1,9,-1,10,4,i,5,/,12,
COc1cc(-c2cc(N)n(S(=O)(=O)c3ccccc3)n2)cc(OC)c1OC,-4,-4,6,-12,i,0,-14,-9,
CC(Oc1cccc2ccccc12)C(=O)N/N=C/c1cccnc1 (stereo not drawn),-1,2,-1,9,i,3,-23,-11,
Cc1cccc(C(O)(C(=O)NNc2ccc3ccccc3n2)c2cccc(C)c2)c1,-3,-6,2,7,i,-53,/,/,
CCOc1cc2[nH]c(=O)n(CCCN3CCCC3=O)c(=O)c2cc1OCC,23,20,-4,-3,i,-6,-15,4,
COc1cc2[nH]c(=S)nc(NC3CCCCCC3)c2cc1OC,-2,-5,1,10,i,-35,/,-4,
O=C(Cn1ncc2c(=O)oc3ccccc3c21)N1CCCc2ccccc21,-1,6,-1,1,i,/,-21,-2,
Cc1cc(C)c(S(=O)(=O)N2CCOCC2)cc1C,-1,0,-1,-8,i,-16,/,6,
Cn1c(N)c(C(=O)COC(=O)c2ccccc2NCc2ccco2)c(=O)n(C)c1=O,-4,-1,10,-5,i,10,/,-5,
CC(C)C(C(=O)Nc1ccc2c(c1)OCCO2)N1C(=O)c2ccccc2C1=O (stereo not drawn),0,2,-5,-4,i,-15,4,-4,
CC(=O)Nc1cccc(-c2ccnc3c2CC(C)(C(=O)Nc2ccc(Cl)cc2)O3)c1 (stereo not drawn),5,-6,/,/,/,-29,-2,/,
CC(C)CC(C)c1cc(N)nc2nc3ccccc3n12 (stereo not drawn),3,-9,-6,-6,i,-1,/,-11,
CN(C)C(=O)Nc1cnc2ccccc2c1,1,2,16,4,i,/,-18,/,
CCCCCOc1ccc(C2C(C(C)=O)=C(C)Nc3ncnn32)cc1OC (stereo not drawn),0,-1,5,-8,i,/,-13,/,
O=C(Cc1ccccc1)Nc1ccc(-c2nnc(-c3ccco3)o2)cc1,0,-1,2,5,i,/,-9,-6,
COC(=O)[C@@H]1C[C@H]2CC[C@H](O)C[C@H]2N1Cc1ccc(C(F)(F)F)cc1,-2,3,0,-7,i,-16,-14,0,
Cc1ccccc1CNC(=O)C(=O)NCC1CCCN1S(=O)(=O)c1ccccc1 (stereo not drawn),-1,-6,/,/,i,/,/,-6,
N/C(=N\OC(=O)c1cccc(F)c1)c1cccc([N+](=O)[O-])c1,-1,0,-5,8,i,-66,-2,-6,
CC(C)Cn1c(N)c(C(=O)COC(=O)C2CCCN2C(=O)c2cccs2)c(=O)n(C)c1=O (stereo not drawn),4,-4,/,/,/,10,-3,1,
CC(C)N(C(=O)[C@H]1C[C@H](CC(=O)NCCCN(C)C)C(=O)N2CCc3c([nH]c4cc(-c5ccco5)ccc34)[C@]12C)C(C)C,0,0,/,/,/,12,7,/,
Cn1cccc1Cc1nnc(SCC(=O)NCCc2ccccc2)n1C,0,0,6,-9,/,2,/,0,
Cc1ccc(OCc2ccc(C(=O)Nc3ccc(C(N)=O)cc3)o2)c([N+](=O)[O-])c1,0,0,-35,-13,i,21,/,-22,
Cc1cc(C(=O)NC2CCCC(C)C2C)c2ccccc2n1 (stereo not drawn),-3,-5,/,/,i,2,-18,-9,
C[C@H](NS(=O)(=O)c1ccc(Cl)cc1)C(=O)OCC(=O)N1CCOCC1,-2,1,/,/,/,-5,-13,17,
COC(=O)c1sc(N2C(=O)C(O)=C(C(=O)c3ccc(C)o3)C2c2ccc(F)cc2)nc1C (stereo not drawn),-12,7,29,38,i,-14,/,2,
Cc1noc(C)c1C(=O)OC(C)C(=O)N1CCc2ccccc21 (stereo not drawn),4,-4,/,/,/,2,-12,/,

# Reprinted at random: five compounds from above
SMILES,MT1-MMP act inh,MT1-MMP act inh RFP,eIF4H inh,PABP FP inh,Rce1 inhib,Env fusion inh,Yeast UUG start,CSC inhib,others
Cc1cc(C(=O)NC2CCCC(C)C2C)c2ccccc2n1 (stereo not drawn),-3,-5,/,/,i,2,-18,-9,
N/C(=N\OC(=O)c1cccc(F)c1)c1cccc([N+](=O)[O-])c1,-1,0,-5,8,i,-66,-2,-6,
Cn1cccc1Cc1nnc(SCC(=O)NCCc2ccccc2)n1C,0,0,6,-9,/,2,/,0,
Cc1noc(C)c1C(=O)OC(C)C(=O)N1CCc2ccccc21 (stereo not drawn),4,-4,/,/,/,2,-12,/,
COC(=O)[C@@H]1C[C@H]2CC[C@H](O)C[C@H]2N1Cc1ccc(C(F)(F)F)cc1,-2,3,0,-7,i,-16,-14,0,

# The listing continues.
SMILES,MT1-MMP act inh,MT1-MMP act inh RFP,eIF4H inh,PABP FP inh,Rce1 inhib,Env fusion inh,Yeast UUG start,CSC inhib,others
CC(=O)C1=C(C)OC(N)=C(C#N)C1c1cc2cc(C)c(C)cc2nc1Cl (stereo not drawn),-4,-2,-2,4,i,-57,-13,-5,
Cc1ccc(-n2nc(C)c(C3(O)C(=O)N(C)c4ccccc43)c2N)cc1 (stereo not drawn),-2,7,-2,-6,i,2,/,-6,
COc1ccc(OC)c(NC(=O)CCNS(=O)(=O)c2ccc3c(c2)c(=O)n(C)c(=O)n3C)c1,4,5,-2,-8,i,2,/,-2,
N/C(=N\OC(=O)Cc1ccc(-c2ccccc2)cc1)c1ccccn1,0,-1,-14,7,i,-218,-29,11,
CCCCNc1oc(-c2cccs2)nc1S(=O)(=O)c1ccccc1,-8,-5,-14,-5,i,18,-14,4,
Cn1c(=O)n(C)c2cc(S(=O)(=O)NCc3ccco3)ccc21,8,5,2,-9,i,/,-11,/,
CC(=O)c1c(C)[nH]c(C(=O)N2CCN(S(=O)(=O)c3ccc(F)c(F)c3)CC2)c1C,-1,-1,/,/,i,-1,-3,-3,
CC(C)c1cc(CNC(=O)CCc2nnc(CCCCc3ccccc3)o2)on1,2,-7,-3,-4,i,2,-9,-11,
O=C1CN(C(=O)COc2c(Cl)cccc2Cl)c2ccccc2N1,2,0,/,/,i,-10,-9,-4,
O=C(c1ccc(Br)o1)N1CCN=C1SCc1cccnc1,2,-1,4,0,i,3,-12,-3,
Oc1c(Br)cc(Br)cc1/C=N/Nc1ccc(Cl)nn1,0,-2,-6,10,i,9,-10,100*,
CSCCNCc1c(C(=O)N2CCOCC2)nc2c(C)cccn12,-1,0,-7,-13,i,7,-11,-4,
C=CCn1c(SCC(=O)c2[nH]c(C)c(C(=O)OCC)c2C)nc2scc(-c3ccccc3)c2c1=O,-8,-14,4,-7,i,3,/,6,
COc1ccc(Cl)cc1NC(=O)C(=O)NCc1ccncc1,1,-1,0,4,i,11,/,-2,
C/C(=N/NC(=O)C1CCCN1C(=O)c1ccc([N+](=O)[O-])cc1)c1ccc(Br)cc1 (stereo not drawn),2,1,-4,-5,i,16,-8,/,
COc1ccc(C(C(=O)NC2CCCC2)N(Cc2ccccc2)C(=O)c2nsc(Cl)c2Cl)cc1 (stereo not drawn),-48,-30,0,-3,i,/,-11,29,
CCN(CC)c1ccc(NC(=S)NCC2CCCO2)cc1 (stereo not drawn),3,2,0,53,i,3,/,7,eIF4H inh retest=0;PABP FP inh retest=8
CCOc1cc(NC(=S)Nc2ccc(Cl)cc2)c(OCC)cc1NC(C)=O,0,-1,-8,9,i,4,/,0,
